From PubChem BioAssay
D2 agonist: activates the human D2 dopamine receptor. P14416. DiscoveRx PathHunter D2 beta-arrestin, luminescence, 90 min; 100% = 57 uM dopamine signal. activation, % (test concentration not listed). hit rate 0.084% among 360,000; in the data active = activation above about 40%; inconclusive = about 15% to 40%; inactive = below about 15%; further: compound concentration not given in the record; the text of the record calls up to 30% inactive
Target sequence (P14416 whole entry, looked up): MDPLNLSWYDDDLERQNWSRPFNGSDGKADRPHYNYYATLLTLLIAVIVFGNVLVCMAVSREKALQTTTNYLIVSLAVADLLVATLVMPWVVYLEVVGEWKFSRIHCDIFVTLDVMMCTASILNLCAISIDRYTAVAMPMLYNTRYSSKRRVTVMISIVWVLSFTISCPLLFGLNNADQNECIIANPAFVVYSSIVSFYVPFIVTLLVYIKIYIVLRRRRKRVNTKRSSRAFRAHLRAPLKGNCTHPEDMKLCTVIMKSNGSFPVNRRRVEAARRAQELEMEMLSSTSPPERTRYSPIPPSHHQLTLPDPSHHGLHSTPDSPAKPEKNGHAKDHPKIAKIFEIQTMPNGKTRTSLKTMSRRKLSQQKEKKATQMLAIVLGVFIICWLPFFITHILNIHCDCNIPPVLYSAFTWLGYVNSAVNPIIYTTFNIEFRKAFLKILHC
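DiscoveRx PathHunter D2 beta-arrestin cells (2,100/well) attached overnight, then compound-stimulated 90 min at 37 C in HBSS/10 mM HEPES/0.1% Tween-20 buffer; beta-galactosidase complementation read by luminescence after 1 h at ambient temperature. Dopamine 57 uM final (EC100) as control.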
TRPML1 blocker: inhibitors of human TRPML1 channel | Q9GZU1 | TRPML1-inducible cells, Ca2+ dye fluorescence, FDSS; stronger effect = lower value; inhibition of EC80 agonist-evoked calcium signal | activity change, negative = inhibition, % (concentration not given with the values) | hit rate 0.02% among 390,000 | AID 624415; in the data active means activity change below about -50%; inconclusive means about -30% to -50%; inactive means above about -30%;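 further: stimulus is agonist 54-4 at its EC80 concentration; on the % scale 0 is the no-effect control and ±100 the full control effect; compound concentration not given in the record; the text of the record puts the active cut at -80%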
Target sequence (Q9GZU1 whole entry, looked up): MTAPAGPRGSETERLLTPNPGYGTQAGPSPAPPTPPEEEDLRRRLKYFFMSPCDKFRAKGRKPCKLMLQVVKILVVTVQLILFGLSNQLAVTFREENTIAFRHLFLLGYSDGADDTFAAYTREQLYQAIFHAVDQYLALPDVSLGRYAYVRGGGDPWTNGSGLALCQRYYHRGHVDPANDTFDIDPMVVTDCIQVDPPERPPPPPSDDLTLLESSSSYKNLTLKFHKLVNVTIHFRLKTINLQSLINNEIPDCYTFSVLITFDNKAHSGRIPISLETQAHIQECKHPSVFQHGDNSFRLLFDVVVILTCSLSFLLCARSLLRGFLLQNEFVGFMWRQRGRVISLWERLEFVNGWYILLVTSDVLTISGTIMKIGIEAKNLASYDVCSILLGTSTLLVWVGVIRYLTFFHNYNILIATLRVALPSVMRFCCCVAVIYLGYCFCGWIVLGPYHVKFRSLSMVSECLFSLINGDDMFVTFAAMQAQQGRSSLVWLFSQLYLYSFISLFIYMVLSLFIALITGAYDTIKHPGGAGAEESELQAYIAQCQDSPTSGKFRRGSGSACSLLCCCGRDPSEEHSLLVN
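Calcium fluorescence in TRPML1-DL cells induced overnight with Tet: a 110 s read after compound pin addition, then a 110 s antagonist read after challenge with 54-4 at 4 uM final (EC80).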
TRPML1 agonist: human mucolipin-1 channel agonism; AID 624414; TRPML1-expressing cells, Ca2+ dye fluorescence, FDSS; host cell line not named in the record; reference of the full effect not given here; hit rate 0.12% among 410,000; activation, % (test concentration not listed); in the data active = activation above about 50%; inconclusive = about 30% to 50%; inactive = below about 30%; further: 0% is about no effect; the text of the record puts the active cut at 80%
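Kinetic FDSS Ca2+ read in Tet-induced TRPML1-DL cells (ABD Ca8 dye plus quencher, 45-90 min RT loading): baseline, then compound, then 110 s agonist window; EC80 agonist 54-4 at 4uM final added afterwards for a 110 s antagonist window.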
Six1-Eya2 blk: inhibitors of human Six1/Eya2 interaction. Q15475+O00167. hit rate 0.56% among 360,000. activity change, % (no concentration beside the values). AID 651725. AlphaScreen GST-Six1/His-Eya2 binding, biochemical; stronger effect = lower value; control for the full effect not named in the record; in the data active = activity change below about -65%; inconclusive = about -30% to -65%; inactive = above about -30%; further: on the % scale 0 is the no-effect control and ±100 the full control effect; compound concentration not given in the record
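GST-Six1 + His-Eya2 (5X stock: 250/500 nM); Tris pH 8.0, 300 mM NaCl, 0.05% BSA, 0.02% Tween 20; GSH donor/Ni acceptor beads; 1 h 37 °C dark; AlphaScreen readout.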
PINK1 modulator: modulators of PINK1 expression | hit rate 0.2% among 410,000 | PINK1 immunofluorescence, high-content cytometry, 24 h | Potency, µM (highest dose often 76.6 µM), without a hit: at the top dose activation (PINK1 increase), most hits filed as activators | AID 624263; active = well fitted activation curve with a large enough effect; inconclusive = small, poorly fitted or top-dose-only effect; inactive = flat fitted curve, though single readings scatter; cell line not stated here;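 further: potency means the concentration at half of the fitted maximal effect; % of control where 0% means no effect; nearly all actives have a fitted effect of over 65% in size; a mitochondrial uncoupler was the plate control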
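Stable cell line treated 24 h with compounds at 5 concentrations (CCCP controls), then fixed and immunostained for PINK1 plus nuclear and cell stains; PINK1 immunofluorescence quantified by laser-scanning microplate cytometry.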
D2 PAM: positive allosteric modulators of human D2 dopamine receptor; P14416; DiscoveRx D2 beta-arrestin cells, luminescence, 90 min; 100% = 57 uM dopamine signal; potentiation, % (no concentration beside the values); hit rate 0.23% among 360,000; active = potentiation of 50% or more; inconclusive = 30% to 50%; inactive = 30% or less;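 further: compound concentration not given in the record; tested on top of an EC20 dose of dopamine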
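PathHunter beta-arrestin assay in DiscoveRx D2 cells. Compounds were added with an EC20 of dopamine (50 nM final) for 90 min at 37 deg C. Luminescence was read 1 h after detection reagent, with 57 uM dopamine as the EC100 control.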
The depositor's hits bear a star; u = inconclusive; x = not tested or not shown; [ ] = dose if it differs, or a comment.

Value order – D2 agonist	TRPML1 blocker	TRPML1 agonist	Six1-Eya2 blk	PINK1 modulator	D2 PAM
1. CCc1nnc(NC(=O)c2ccc(S(=O)(=O)N(CC(C)C)CC(C)C)cc2)o1
    -1.1	10	-1.1	-13	3.4%	-1
2. CCC(C)(C)NC(=O)C(c1ccc(C)cc1)N(CCN1CCOCC1)C(=O)CNC(=O)c1cccs1 (configuration not stated)
    -2.4	15	0.4	8	-0.4%	-1
3. COc1cc(OC)c(N(C)C(=O)Cn2ncc3c([nH]c4ccccc43)c2=O)cc1Cl
    x	29	0.9	x	3.9%	x
4. O=S(=O)(NCCOc1ccccc1)c1ccc2ccccc2c1
    0.7	-11	1.3	1	15%[38.3 µM]	2
5. CCN(CC)CCn1c(=N)n(CC(O)COc2ccccc2)c2ccccc21 (configuration not stated)
    -4.5	12	1.2	1	0.6%	-6
6. CCOC(=O)c1[nH]c(C)c(C(=O)NCc2ccco2)c1C
    -3.6	-4	-0.2	-4	-0.6%	0
7. COCCn1c(=O)[nH]c2cc(C(=O)N3CCN(c4ccccc4F)CC3)ccc2c1=O
    -3.2	39	-1.0	2	2.2%	-6
8. Cc1nn(CC(=O)Nc2sc3c(c2C#N)CCC(C(C)(C)C)C3)c(C)c1[N+](=O)[O-] (configuration not stated)
    -2.9	-9	-0.1	-1	-1.0%	-9
9. COc1ccccc1N/C=C/c1onc(C)c1[N+](=O)[O-]
    -8.5	7	0.1	4	5.0%	-12
10. COc1cc(C2C(C#N)=C(C)NC3=C2C(=O)CC(C)(C)C3)ccc1O (configuration not stated)
    0.8	9	-0.2	5	-0.9%	20
11. Cc1cc(C)cc(NC(=O)CSc2nc(=O)n(CCN3CCOCC3)c3c2CCC3)c1
    x	25	-0.7	x	-0.7%	x
12. COC(=O)c1ccc(CNC(=O)c2ccc(NS(=O)(=O)c3ccc4[nH]c(=O)[nH]c4c3)cc2)cc1
    1.0	-24	-0.7	-2	-0.3%	-10
13. Nc1ccc(-c2nc3cc(N)ccc3n2CCO)cc1
    -4.7	3	-0.3	-3	0.2%	-17
14. O=C(NCCCN1CCOCC1)c1cccnc1SCc1ccccc1Cl
    -4.5	-11	0.1	5	1.0%	-7
15. CCOC(=O)CSc1nc2ccc(S(=O)(=O)N3CCOCC3)cc2[nH]1
    3.1	-5	0.8	5	1.5%	-13
16. C[C@@H]1[C@H](c2ccccc2)Oc2ccc(Cl)cc2S(=O)(=O)N1CC1CCCN1C(=O)OC(C)(C)C (some centres not stated)
    -1.2	1	-0.2	-4	5.1%	-2
17. COc1ccc(-c2[nH]nc3c2C(c2ccoc2)C(C#N)=C(N)O3)cc1 (configuration not stated)
    -0.9	14	-0.7	-14	0.7%	-11
18. Cc1cccc(CN2CCN(C3CN(Cc4cn(Cc5cccc(Cl)c5)nn4)S(=O)(=O)C3)CC2)c1 (configuration not stated)
    x	x	-0.7	-1	-0.7%	x
19. COc1ccc(C2CC(=O)N(CCCN(C)CCc3ccc(OC)c(OC)c3)C2)cc1 (configuration not stated)
    -6.9	-12	0.7	-1	-0.6%	-18
20. O=c1cc(CSc2nnnn2-c2ccccc2)nc2scc(-c3ccccc3)n12
    -0.8	26	7.2	-6	-2.2%	9
21. Cc1ccc(S(=O)(=O)N(C)CC(=O)NCc2ccncc2)cc1
    1.2	32	-0.3	2	1.9%[38.3 µM]	4
22. COC(=O)c1ccccc1NC(=O)Cn1c(=O)n(CCC(=O)NCc2ccccc2OC)c(=O)c2ccccc21
    x	2	-0.5	x	1.4%	x
23. O=C(Nc1ccccc1)O/N=C1\CCCCC1c1ccc([N+](=O)[O-])cc1[N+](=O)[O-] (configuration not stated)
    6.7	9	0.8	-28	0.2%	u
24. Cc1ccsc1C(=O)OCC(=O)Nc1cccc(S(=O)(=O)N2CCOCC2)c1
    0.7	-19	3.7	-6	-0.5%	-3
25. O=C(OCc1ccc(Cl)c(Cl)c1)c1ccccn1
    -1.8	-2	1.7	5	-2.0%[38.3 µM]	-9
26. CCOc1ccc(Oc2ccccc2NC(=O)CSCC(=O)Nc2cc(C)on2)cc1
    -2.0	-6	1.3	-3	3.5%	-36
27. CCOc1cc(C=NNC(=O)c2cccc(S(=O)(=O)N3CCCC3)c2)ccc1O
    0.1	15	-0.3	-66*	0.2%	-12
28. N#Cc1cc2cc3c(cc2nc1SCC(=O)OC1CCCCC1)OCO3
    -1.4	3	3.2	5	11%	-2
29. CC(C)C(=O)NC(=S)Nc1nnn(C)n1
    -6.1	26	0.7	3	-0.3%	-7
30. COc1cc(C(O)C(=O)O)ccc1O (configuration not stated)
    -5.1	2	-0.5	0	-0.8%	-4

Next structures.
Value order – D2 agonist	TRPML1 blocker	TRPML1 agonist	Six1-Eya2 blk	PINK1 modulator	D2 PAM
31. CCN(CC)C(=O)C(=O)Nc1cc(C(F)(F)F)ccc1Cl
    -3.2	19	1.4	3	0.2%	0
32. O=C(CSc1nc2ccccc2c(=O)n1CCCO)Nc1ccc2c(c1)OCCO2
    -6.2	-1	-0.1	-15	-1.0%	-8
33. COc1ccc(-n2nc(C(=O)NCC(=O)Nc3cccc(C)n3)c3ccccc3c2=O)cc1
    -0.3	-17	3.1	3	0.8%	6
34. Cn1c(N2CCN(C(c3ccccc3)c3ccccc3)CC2)nc2ccccc21
    -5.3	10	6.9	0	4.4%	-7
35. COc1ccc(CNC(=O)CCC(=O)Nc2cccnc2)cc1
    -1.9	24	-0.4	2	3.4%	-4
36. COc1ccc(OC)c2[nH]c(=O)c(CCNC(=O)C(C)(C)C)cc12
    2.8	-6	-0.9	4	0.1%	2
37. O=C(O)c1ccccc1NS(=O)(=O)c1ccc(N/N=C/c2ccc(O)c(O)c2)c([N+](=O)[O-])c1
    -4.5	-13	2.8	u	4.3%	-3
38. COc1ccc(CN2C(=O)c3ccccc3C(/C=N\OCc3ccc(C)cc3)C2=O)cc1 (configuration not stated)
    1.4	-3	1.9	-3	u	-3
39. Cc1cc(C(=O)N/N=C/c2ccc([N+](=O)[O-])cc2)c(C)o1
    -0.6	-9	-0.4	-9	7.5%	-12
40. COc1cc(NC(=O)Cc2ccc([N+](=O)[O-])cc2)c(C(=O)O)cc1OC
    -2.7	40	-0.3	-4	-0.9%	3
41. O=C(O)CCSc1nc(C(F)(F)F)cc(=O)n1-c1ccccc1
    -2.3	0	4.7	6	-1.3%	-9
42. O=C(NCC(=O)N(Cc1cccs1)C(C(=O)NC1CCCC1)c1ccco1)c1cccs1 (configuration not stated)
    -0.2	-2	-0.4	-1	0.4%	-5
43. N#CCSCC(=O)Nc1ccc(F)cc1
    1.7	2	0.7	4	-3.0%[38.3 µM]	-14
44. O=C1NC(Cc2ccccc2)c2nc3ccccc3c(=O)n2-c2ncccc21 (configuration not stated)
    -7.8	-2	-0.2	6	0.8%	11
45. COc1ccc(-c2cc(C(=O)OCC(=O)N3CCCCC3)c3ccccc3n2)cc1OC
    1.5	7	2.8	3	-6.6%	-5
46. COCCN(C(=O)C1CC(=O)N(Cc2ccccc2)C1)c1nc(-c2ccc([N+](=O)[O-])cc2)cs1 (configuration not stated)
    u	-12	-0.1	-19	-0.8%	2
47. COCCN1C(=O)c2oc3ccccc3c(=O)c2C1c1ccc(C(=O)OC)cc1 (configuration not stated)
    -0.8	13	0.5	5	2.5%	-4
48. O=C(Cn1cnc2cc([N+](=O)[O-])ccc2c1=O)NC(c1ccccc1)c1ccccc1
    -0.7	5	2.6	-9	8.0%	6
49. CC1CCCN(C(=O)c2nn(C)c3c2CSc2ccccc2-3)C1 (configuration not stated)
    -1.7	-6	-0.1	0	-0.8%	-1
50. CNc1cnc(-c2cccc(C(=O)N3CCOCC3)c2)cn1
    -4.8	4	-0.9	5	-1.4%	-4
51. N#Cc1ccsc1NC(=O)COC(=O)c1cc(Br)ccc1O
    -1.1	5	-0.8	-12	-1.3%	3
52. O=C(Nc1ccc(N2CCOCC2)cc1)C1CCN(S(=O)(=O)c2ccccc2F)CC1
    -1.0	7	-0.4	3	3.8%	-11
53. CN(Cc1ccccc1)S(=O)(=O)c1ccc(S(=O)(=O)N(Cc2ccc(F)cc2)C2CCCC2)cc1
    -1.1	13	-0.3	5	16%[38.3 µM]	-3
54. CCC1CCCCN1C(=O)c1ccc2c(c1)C(=O)N(c1ccc(C)cc1)C2=O (configuration not stated)
    -3.6	27	-0.4	4	3.6%	-3
55. C=CCc1ccccc1OCC(O)CN1CCN(c2ccc(OC)cc2)CC1 (configuration not stated)
    -2.3	-4	0.7	u	-0.2%	-40
56. COc1ccc(CCNC(=O)Nc2nc(C(N)C3CCCCC3)cs2)cc1OC (configuration not stated)
    8.9	51	-1.1	-12	-0.2%	-17
57. O=S(=O)(c1ccc(Cl)cc1)N1CCN(c2ccccn2)CC1
    1.3	-17	1.0	-5	-0.2%	-10
58. CN(CC(=O)NCc1ccccn1)S(=O)(=O)c1ccc(F)cc1
    -0.6	10	1.0	-2	4.1%	-2
59. O=S(=O)(Nc1ccc(N2CCOCC2)cc1)c1cccs1
    -2.1	-10	-0.7	-14	-0.3%	-5
60. Cn1cc(Br)c(C(=O)N/N=C/c2cc3c(cc2Cl)OCO3)n1
    -1.8	33	-0.2	-3	2.2%	-8

Looked up by structure from the entries so far (four):
Value order – D2 agonist	TRPML1 blocker	TRPML1 agonist	Six1-Eya2 blk	PINK1 modulator	D2 PAM
45. COc1ccc(-c2cc(C(=O)OCC(=O)N3CCCCC3)c3ccccc3n2)cc1OC
    1.5	7	2.8	3	-6.6%	-5
55. C=CCc1ccccc1OCC(O)CN1CCN(c2ccc(OC)cc2)CC1 (configuration not stated)
    -2.3	-4	0.7	u	-0.2%	-40
60. Cn1cc(Br)c(C(=O)N/N=C/c2cc3c(cc2Cl)OCO3)n1
    -1.8	33	-0.2	-3	2.2%	-8
39. Cc1cc(C(=O)N/N=C/c2ccc([N+](=O)[O-])cc2)c(C)o1
    -0.6	-9	-0.4	-9	7.5%	-12

Next part.
Value order – D2 agonist	TRPML1 blocker	TRPML1 agonist	Six1-Eya2 blk	PINK1 modulator	D2 PAM
61. COc1ccc(-c2nc3ccccc3n3c(-c4ccccc4)c4c(=O)n(C)c(=O)n(C)c4c23)cc1OC
    x	-22	-0.7	x	3.6%	x
62. CCOC(=O)c1c(NC(=O)COc2cccc(C(F)(F)F)c2)sc2c1CCCCC2
    x	-1	-0.6	x	0.3%	x
63. NC(=O)NCCc1ccccc1
    -6.4	-9	-0.4	6	2.0%	-5
64. Cc1csc(NC(=O)CNS(=O)(=O)c2cccs2)n1
    -3.2	-20	0.3	3	-2.1%	-1
65. S=C(NCc1ccncc1)Nc1ccc(Cl)cc1
    1.3	15	-0.8	-8	0.1%	-9
66. CC(C)(C)CC(C)(C)NC(=S)N1CCN(Cc2ccc3c(c2)OCO3)CC1
    -0.8	31	2.6	4	-1.0%	-41
67. O=C(CNc1ccccc1)Nc1cccc2ccccc12
    0.4	14	1.0	-5	-0.5%	-8
68. Cc1cc(SCc2ccc(F)cc2)nc(=O)[nH]1
    6.6	20	0.4	0	1.0%	-4

This is a random part of the collection. About 1% of those tested had a hit in this group.
